AID504770 = growth inhibition of E. coli YBA685, primary screen, V. cholerae RctB inhibitors. E. coli YBA685 rctB-dependent plasmid, OD600 growth, 3 h; hits give low values. z-score (concentration not given with the values). actives 0.27% (n = 130,000). AID 504770, 2011;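 active = z-score under -2 on both plates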;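 also: wells of about 30 µL received 100 nL stock; score is relative to mean and SD of the test wells; the first replicate is given; strong numbers were not always called active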
CapD inh = Bacillus anthracis CapD inhibitors, primary screen, biochemical, fluorescence intensity; z-score (concentration not given with the values); actives 0.23% (n = 140,000); AID 492967, 2010; purified CapD enzyme, fluorescence intensity read-out; hits give low values; some hits fall short of the stated cut;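 active = z-score under -4 in either of two replicates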;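 also: stock transfer was 100 nL into about 40 µL; score is relative to mean and spread of the plate; one replicate is shown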
* marks the source's active call; other numbers are inactive results; i = inactive; . = not tested or not shown; & = joins results of further samples. Compounds as they come. Share with any hit: about 0.41%.

SMILES	AID504770	CapD inh
O=C(O)CCN1C(=O)Cc2ccccc2C1=O	-0.85	.
CCCCn1c(C2CC2)nc2cc(S(=O)(=O)N3CCOCC3)ccc21	-1.5	.
N[C@@H]1C[C@H]1c1ccccc1	.	0.38
COc1cccc(-n2cc(C(=O)N3CCN(C(=O)c4ccco4)CC3)c3ccccc3c2=O)c1	0.1	5.4
O=C(O)COCC(=O)NC1CCN(Cc2ccccc2)CC1	1.4	-0.98
CNC(=O)C(C)n1c(C)c2cnn(-c3ccccc3)c(=O)c2c1C (stereo not given)	1.1	0.73
O=C(O)c1ccc(O)c(-n2c(=O)c3cc4c(=O)n(-c5cc(C(=O)O)ccc5O)c(=O)c4cc3c2=O)c1	2.4	0.68
O=S(=O)(Cc1ccco1)Cc1nc(-c2ccccc2)cs1	0.45	-0.4
CCOC(=O)c1ccc(N2Cc3cc(C)c(C)cc3C2)cc1O	0.3	0.1
CCOC(=O)c1cnc(=S)[nH]c1C(F)(F)F	-0.3	-0.3
O=C(O/N=C1\C(=O)N(c2ccccc2)c2ccccc21)c1ccccc1Cl	.	-0.09
c1cncc(N=c2scc(-c3cccs3)n2C2CCCC2)c1	1	.
Cc1ccccc1CN1CCN(c2ccccn2)CC1	-0.75	.
CCN=C1S/C(=C\c2ccc(C(=O)OC)cc2)C(=O)N1CC	-0.3	.
O=C(CC1SC(=Nc2ccccc2)N(c2ccccc2)C1=O)Nc1cccc(C(=O)O)c1 (stereo not given)	.	-1
COc1cc(OC)c2nc(C)c3c(c2c1)CN(C(=O)Nc1ccccc1)C3	-0.7	85
Cc1ccccc1C(=O)N/C(=C\c1coc2ccc(Cl)cc2c1=O)C(=O)N1CC2CC(C1)c1cccc(=O)n1C2 (stereo not given)	.	0.06
CC(C)c1ccc(NC(=O)C2CC(=O)N(C3CCCC3)C2)cc1 (stereo not given)	0.25	.
O=S(=O)(Oc1ccccc1N1CCCCC1)c1ccc(-c2ccccn2)s1	2.3	0.57
O=c1oc(-c2cccs2)ns1	-0.25	-8.9*
CC(=O)Oc1coc2ccc3c(C)cc(=O)oc3c12	2	17
CSc1sc(/C(C)=N\O)c2c1/C(=N\O)CC(C)(C)C2	1.1	-0.53
CCCc1ccc(OCCNC(=O)c2ccc3ccccc3n2)cc1	-0.2	0.14
N#Cc1c(F)cccc1N1CCC(C#N)CC1	0.7	72
C=CCSc1nnc(-c2ccccc2)n1-c1ccccc1	2.4	.
C=C(C)CC1NC2CC(C)(C)C1c1ccccc12 (stereo not given)	0.4	0.16
O=C(Nc1ccccc1N1CCOCC1)NC1CCN(C(=O)OCc2ccccc2)CC1	1.1	0.14
O=C(O)CCC(=O)N1CCC(c2nnc(-c3ccccc3)o2)CC1	.	-0.15
CCOC(=O)c1ccc(N2N=C(C)/C(=C/c3cccn3-c3ccc(S(N)(=O)=O)cc3)C2=O)cc1	.	-0.85
O=C(Cc1c(F)cccc1Cl)Nc1cc(C(=O)N2CCCC2)ccc1N1CC2CC(C1)c1cccc(=O)n1C2 (stereo not given)	0.45	0.31
O=C(NCCN1CCOCC1)Nc1ccc(Cl)cc1Cl	-0.55	-0.9
COc1cc(=O)n(C)c2c(OC(C)=O)cccc12	-1.1	1.1
CCc1c(C)sc(NC(=S)n2cc(C)cn2)c1C(=O)OC	-0.35	-0.66
Cc1ccc(NS(C)(=O)=O)cc1N=Cc1ccc(Cl)c(Cl)c1	.	0.19
Cc1ccc(C2C3=C(CCCC3=O)OC3=C2C(=O)CCC3)o1	-0.15	-0.32
O=C(CNC1Cc2ccccc2C1)Nc1ccccc1N1CCOCC1	-0.05	0.33
COc1cccc(NC(=O)c2ccc(OC(=S)N3CCC(C)CC3)cc2)c1	-2.8*	-0.21
O=C(N/C(=C\c1cccc([N+](=O)[O-])c1)C(=O)N(CCO)CCO)c1ccco1	.	-0.21
NC(=O)c1cccc2c1OCCO2	-0.2	3.2
CN(C)/C=C1\N=C(SCc2c(Cl)cccc2Cl)NC1=O	1.1	-1.2
Cc1ccc(S(=O)(=O)N/N=C/c2ccc(Cl)cc2)cc1	.	-0.9
COc1cc(C=Nc2ccc3[nH]c(=O)[nH]c3c2)ccc1OC(C)=O	-1.2	.
Cc1ccc(C(=O)C(O)c2ccc(C)cc2)cc1 (stereo not given)	-0.75	.
COC(=O)CN1C(=O)CCSc2ccccc21	-0.3	-0.55
Cc1ccccc1-n1c(SCc2ccc(F)cc2Cl)nnc1-c1cc2occc2n1C	-1.2	1.3

Record cards (already shown). Order of values: AID504770 | CapD inh
NC(=O)c1cccc2c1OCCO2 as listed: -0.2 | 3.2
COc1cccc(NC(=O)c2ccc(OC(=S)N3CCC(C)CC3)cc2)c1 as listed: -2.8* | -0.21
COc1cc(C=Nc2ccc3[nH]c(=O)[nH]c3c2)ccc1OC(C)=O as listed: -1.2 | .
Cc1ccc(S(=O)(=O)N/N=C/c2ccc(Cl)cc2)cc1 as listed: . | -0.9
CN(C)/C=C1\N=C(SCc2c(Cl)cccc2Cl)NC1=O as listed: 1.1 | -1.2

(cont.)
SMILES	AID504770	CapD inh
CCNC(=O)COc1ccccc1Cl	-1.4	0.68
O=P(Cc1cccc(CP(=O)(c2ccccc2)c2ccccc2)n1)(c1ccccc1)c1ccccc1	.	-0.2
CC(C(=O)NCc1cccnc1)n1cccc1C(=O)c1ccccc1 (stereo not given)	-0.45	-0.79
O=C(CSc1nnc(Cc2cc(=O)[nH]c(=O)[nH]2)n1-c1ccccc1)N1CCCC1	0.7	-0.12
CC1(C)CN(c2ccc(C(F)(F)F)cc2)C1=O	0.45	-0.92
O=C(CSC1=N/C(=C\c2ccc(F)cc2)C(=O)N1Cc1ccco1)N1CCCC1	1.3	.
CC(=O)Nc1ccc(S(=O)(=O)N(C)CC(=O)N2CCN(C(=O)c3ccco3)CC2)cc1	-0.25	.
COc1cc(/C=C/C(=O)NNC(=O)CNC(=O)c2ccccc2)cc(OC)c1OC	.	6.1
CC1=C/C(=N\Nc2ccccc2Cl)CC1	-2.9	.
Cc1c(C(=O)OC2CCCCC2=O)oc2ccc(Br)cc12 (stereo not given)	0.75	.
N#CC(=C1CCCC1)c1nc2ccccc2s1	-1.1	-0.45
CCOC(=O)C1=NNC2C(=O)N(c3ccccc3C)C(=O)C12 (stereo not given)	.	0.11
Cn1c(=O)c(=O)n(C)c2cc(NC(=O)C(C)(C)C)ccc21	1.5	-0.68
CCCOc1ccc(C2Oc3ccc(Br)cc3C3CC(c4ccc(OC)cc4)=NN32)cc1 (stereo not given)	.	2.3
Cc1noc(C)c1COc1cc2ccccc2cc1C(=O)OCc1cc(=O)n2c(C)csc2n1	-0.8	.
Cc1cc(C)nc(SCC(=O)N(c2ccccn2)c2ccccn2)n1	0.25	.
Clc1ccc(C=NCc2cccnc2)c(Cl)c1	-0.25	0.11
COc1ccc(NC(=O)N(CCN(C)C)Cc2cc3cc(OC)ccc3[nH]c2=O)cc1	0.05	.
CCN(Cc1ccccc1)C(=O)CCN1C(=O)/C(=C/c2ccc3c(c2)OCO3)SC1=S	.	1.7
O=C(CSc1nc2ccccc2c(=O)n1NC(=O)Cc1ccccc1)NCCc1ccccc1	.	-0.17
N#Cc1ccc(S(=O)(=O)N2CCN(Cc3ccccc3)CC2)cc1	.	-0.54
O=C(c1ccccc1)N1CCN(c2ccc(F)cc2)CC1	0.15	.
CCN(CC)CCNc1nc2c(c(=O)[nH]c(=O)n2C)n1CC(O)COc1ccc([N+](=O)[O-])cc1 (stereo not given)	.	-0.41
CCOc1ccc(N2C(=O)C(N3C(=O)c4ccccc4C3=O)C2c2cccc(OC)c2)cc1 (stereo not given)	.	-0.32
CCOC(=O)c1cnc2c(C)cc(C)cc2c1Nc1ccc(C)cc1	.	-0.32
CCOC(=O)N=c1oc2cc(Cl)c(Cl)cc2o1	-2.5	.
Cc1ccc2c(CC(=O)NC3CCCC3)coc2c1	-0.1	-0.06
Cc1nn(C)c(Sc2cccc(Cl)c2)c1C(=O)Nc1ccc(F)cc1F	.	-0.25
O=C(NC1CCCCCC1)c1ccccc1	-0.2	0.15
COc1cc(OC)nc(N2CCN(C(=O)c3ccccc3NC(=O)c3ccc(C(C)(C)C)cc3)CC2)n1	.	-0.62

Overlap with the part before: 5 entries; new compounds follow.
SMILES	AID504770	CapD inh
CCOC(=O)N=c1oc2cc(Cl)c(Cl)cc2o1	-2.5	.
Cc1ccc2c(CC(=O)NC3CCCC3)coc2c1	-0.1	-0.06
Cc1nn(C)c(Sc2cccc(Cl)c2)c1C(=O)Nc1ccc(F)cc1F	.	-0.25
O=C(NC1CCCCCC1)c1ccccc1	-0.2	0.15
COc1cc(OC)nc(N2CCN(C(=O)c3ccccc3NC(=O)c3ccc(C(C)(C)C)cc3)CC2)n1	.	-0.62
COc1ccc(C(=O)NNC(=O)c2sc(SC)c3c2CCCC32SCCS2)c(OC)c1	.	-0.58
NC(=O)C[n+]1cccc2ccccc21	-1	0.2
N#CC(C#N)=C1c2cc(S(=O)(=O)NCCO)ccc2-c2ccc(S(=O)(=O)NCCO)cc21	-1.1	.
O=C(CSc1nc2c(c(=O)n1-c1ccccc1)SCC2)OCc1ccccc1	0.1	0.6
O=C(OCc1nc2ccccc2s1)c1ccc(N2C(=O)CCC2=O)cc1	0.3	i
CC(C)NC(=O)CSc1nnc(N)s1	-0.9	.
CC(C)(C)OC(=O)N1CCCN(C(=O)OCc2ccc(C#Cc3ccccc3)s2)CC1	.	-0.56
COc1cc(NC(=O)NC2Cc3ccccc3C2)cc(OC)c1	.	0.36
C=C(C)Cn1c(C(C)O)nc2ccccc21 (stereo not given)	-0.8	0.4
Cc1cc(C(=O)OCC(=O)Nc2ccccc2)c(C)o1	-0.4	0.12
CC12CC3(C(=O)Nc4ccc(Br)cc4)C1CCC23C (stereo not given)	-0.45	-0.59
N#Cc1ccc(NC(=O)CCCC(=O)O)cc1	-1.1	-0.79
CC(=Nc1ccc(C)cc1C)c1sc2ccccc2c1O	0.1	16
CC12C(=O)N(c3nccs3)C(=O)C1C1C=CC2C1 (stereo not given)	0.3	0.65
CC(C)(C)n1ncc2c(=O)n(CC(=O)NCc3ccc(F)cc3)cnc21	0.05	.
CC1(C)CCc2cc(-c3ccn(S(=O)(=O)c4ccc(Cl)cc4)n3)ccc2O1	1.1	0.58
CCN(CC)C(=O)c1ccc(C(=O)c2cc(OC)ccc2OC)cc1	0.6	-0.14
CC1=C(C(=O)OCCc2ccccc2)C(c2ccc(Cl)c(Cl)c2)NC(=O)N1C (stereo not given)	.	0.74
COc1ccc(Cl)cc1S(=O)(=O)N1CCN(c2ncccn2)CC1	.	0.57
Cc1ccc(Cc2nc(C(C)(C)C)cs2)cc1	.	-0.28
Cc1ccc2cccc(OC(=O)c3ccc(Br)o3)c2n1	0.2	-0.02
O=C(Oc1ccc2cc(OC(=O)c3ccccc3)ccc2c1)c1ccccc1	0.05	-0.12
COc1ccc(N2CCN(C(c3cccs3)C(C)NC(=O)c3c(F)cccc3F)CC2)cc1 (stereo not given)	-0.05	0.41
COc1cccc(OC)c1C(=O)NNc1ncc(C(F)(F)F)cc1Cl	1.4	-0.92
CC(=O)NC1=NN(C(C)=O)C2(S1)C(=O)N(C(C)=O)c1ccccc12 (stereo not given)	.	0.54
COc1ccc(NCc2cc(=O)oc3cc(NC(C)=O)ccc23)cc1	1.4	.
COc1ccc(Cc2c(Cl)nc(SC)nc2NN)cc1	-0.2	.
O=C1NC(=S)N(c2cccc(Br)c2)C(=O)/C1=C/c1cc(Cl)ccc1O	.	-0.32
CC(=O)N1c2cc(C)c(C)cc2-c2c(ssc2=S)C1(C)C	.	0
S=c1[nH]nc(C2COc3ccccc3O2)o1 (stereo not given)	-0.65&1.2	-0.03
N#CCCn1c(SCc2ccc(C#N)cc2)nc2ccccc21	-0.75	.
CCCC(=O)Nc1nnc(SCC(=O)Nc2ccccc2C(F)(F)F)s1	-1.1	0.23
O=C(Cn1nnc(-c2cccnc2)n1)N(c1ccccc1)c1ccccc1	0.05	.
Nc1c(C(=O)Nc2ccc(S(N)(=O)=O)cc2)sc2nc3c(cc12)CCC3	.	2.2
CN(C)c1c(/C=C2\C(=O)Nc3ccccc32)cc(/C=C2/C(=O)Nc3ccccc32)c(N(C)C)c1C#N	.	-2.4
CN1C2C=C(N(CCc3ccccc3)C(=O)c3ccc(F)cc3)CC1CC2 (stereo not given)	.	-0.15
CC(C)CN1C(=O)N(c2cccc(Cl)c2)C(n2oc(=O)n(-c3cccc(Cl)c3)c2=O)C1(C)C (stereo not given)	.	-0.19
COC(=O)COc1ccc2c(-c3ccccc3)cc(=O)oc2c1	-0.8	1.2
COc1ccc(C2N(c3ccccc3)CCN2c2ccccc2)cc1[N+](=O)[O-]	.	0.95
Cc1ccc(S(=O)(=O)N(CCC(=O)N2CCOCC2)c2ccccc2)cc1	1	.
O=C(NC1CCN(Cc2ccc(Cl)c([N+](=O)[O-])c2)C1)OCCn1cccc1 (stereo not given)	.	-1.2
COc1ccc(S(=O)(=O)Nn2cnnc2)cc1	-0.65	0.23
Cc1cc(NC(=O)c2noc3c2CC(C(C)(C)C)CC3)nn1Cc1ccc(Cl)cc1 (stereo not given)	1.8	-0.12
CC(=O)Nc1cccc(C(=O)OCC(=O)c2cc3ccccc3o2)c1	0.7	.
Cc1ccc(S(=O)(=O)N2CCN(S(=O)(=O)c3ccccc3)C2C(C)C)cc1 (stereo not given)	1.7	-0.1
